Screening data from PubChem BioAssay.
ClpP mod = qHTS Assay for Activators of ClpP; ATP-dependent Clp protease proteolytic subunit (Bacillus subtilis (strain 168)), P80244; purified B. subtilis ClpP, FRET peptide cleavage, 20 min; Potency, µM (doses to about 57.5 µM), for inactives: at the highest dose activity change, negative = active; 340,000 tested, 1.9% active; active = well fitted falling curve with a large enough effect; inconclusive = small, poorly fitted or top-dose-only effect; inactive = no such curve, though single readings can be large or run the other way; note: potency is the fitted concentration of half-maximal effect; the source files actives as falling curves though it sought activators and does not explain the sign; nearly all actives have a fitted effect of over 65% in size; many hits overshoot -100%
Target sequence (P80244 whole entry, looked up): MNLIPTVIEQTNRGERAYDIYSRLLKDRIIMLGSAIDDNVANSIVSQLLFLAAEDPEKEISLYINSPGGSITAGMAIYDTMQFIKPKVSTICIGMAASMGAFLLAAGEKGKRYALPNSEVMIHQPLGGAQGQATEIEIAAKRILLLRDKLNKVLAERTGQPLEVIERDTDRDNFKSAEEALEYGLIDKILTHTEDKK
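Buffer: 100 mM Tris/HCl pH8, 100 mM KCl, 0.05% low protease BSA, 2.5% glycerol, 0.01% Tween-20. ClpP 10 microg/mL final; 20 min RT; delta FRET normalized to ADEP and DMSO controls.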
gsp antag = qHTS for Antagonists of gsp, the Etiologic Mutation Responsible for Fibrous Dysplasia/McCune-Albright Syndrome: qHTS | gsp-mutant cells, cAMP HTRF, 30 min; control for the full effect not named in the record | Potency, µM (titrated, usually from 76.9 µM), without a hit: at the top dose activity change, negative = inhibition, most hits filed as inhibitors | 340,000 tested, 0.4% active | AID 624288, 2012; active = falling curve of any shape with a large fitted effect; inconclusive = falling curve, mostly with a smaller effect; inactive = flat or rising curve; cell line not stated here;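 note: intracellular cAMP measured with PDE inhibitor Ro 20-1724 present during compound exposure; potency is the fitted concentration of half-maximal effect; % is set by controls: 0 for no effect and ±100 for the full control effect; nearly all actives have a fitted effect of over 65% in size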
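G418-selected cells were plated in DMEM/10% FBS for 16-24 h at 37C, then treated with compounds plus the PDE inhibitor […] (300 uM solution added) for 30 min at 37C. Intracellular cAMP was measured by HTRF after 30 min lysis at room temperature.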
gsp ag = qHTS for Agonist of gsp, the Etiologic Mutation Responsible for Fibrous Dysplasia/McCune-Albright Syndrome: qHTS; 340,000 tested, 0.13% active; Potency, µM (doses to about 76.9 µM), for inactives: at the top dose activation (cAMP increase), usual class: activators; gsp mutant cells, cAMP HTRF, 30 min; control for the full effect not named in the record; active = well fitted activation curve with a large enough effect; inconclusive = small, poorly fitted or top-dose-only effect, or another doubt; inactive = no such curve, though single readings can be large or run the other way; cell line not stated here;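 note: phosphodiesterase inhibitor Ro 20-1724 added with compounds to block cAMP breakdown; potency is the fitted concentration of half-maximal effect; nearly all actives have a fitted effect of over 60% in size; about a fifth of the inactives were tested at one dose only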
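Cells stably selected in G418 were plated at 2000/well, grown 16-24 hr, then given compounds in DMSO with the PDE inhibitor […] (300 uM solution added) for 30 min at 37C; cAMP was read by HTRF.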
Menin MLL FP FL = qHTS Assay for Inhibitors Targeting the Menin-MLL Interaction in MLL Related Leukemias: Competition With Fluorescein Labeled MLL-derived Peptide; Fluorescence polarization, fluorescein-MLL peptide displacement from menin; FP activity change, % at 61.4 µM; 290,000 tested, under 10 active; AID 1766, 2009; inconclusive = falling polarisation curve, or a change in total fluorescence; inactive = total fluorescence flat and polarisation flat or rising; no compound was filed as active; the % refers to the polarisation; negative = inhibition;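 note: % of control where 0% means no effect; inhibitors lower the polarisation; unlabelled MLL peptide was the positive control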
TRPML1 blocker = qHTS for Inhibitors of the Human Mucolipin Transient Receptor Potential 1 (TRPML1); Mucolipin-1 (Homo sapiens), Q9GZU1; TRPML1-inducible cells, Ca2+ dye fluorescence, FDSS; stronger effect = lower value; inhibition of EC80 agonist-evoked calcium signal; 390,000 tested, 0.02% active; activity change, negative = inhibition, % (concentration not given with the values); AID 624415, 2012; in the data active means activity change below about -50%; inconclusive means about -30% to -50%; inactive means above about -30%;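 note: stimulus is agonist 54-4 at its EC80 concentration; % is set by controls: 0 for no effect and ±100 for the full control effect; compound concentration not given in the record; the text of the record puts the active cut at -80%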
Target sequence (Q9GZU1 whole entry, looked up): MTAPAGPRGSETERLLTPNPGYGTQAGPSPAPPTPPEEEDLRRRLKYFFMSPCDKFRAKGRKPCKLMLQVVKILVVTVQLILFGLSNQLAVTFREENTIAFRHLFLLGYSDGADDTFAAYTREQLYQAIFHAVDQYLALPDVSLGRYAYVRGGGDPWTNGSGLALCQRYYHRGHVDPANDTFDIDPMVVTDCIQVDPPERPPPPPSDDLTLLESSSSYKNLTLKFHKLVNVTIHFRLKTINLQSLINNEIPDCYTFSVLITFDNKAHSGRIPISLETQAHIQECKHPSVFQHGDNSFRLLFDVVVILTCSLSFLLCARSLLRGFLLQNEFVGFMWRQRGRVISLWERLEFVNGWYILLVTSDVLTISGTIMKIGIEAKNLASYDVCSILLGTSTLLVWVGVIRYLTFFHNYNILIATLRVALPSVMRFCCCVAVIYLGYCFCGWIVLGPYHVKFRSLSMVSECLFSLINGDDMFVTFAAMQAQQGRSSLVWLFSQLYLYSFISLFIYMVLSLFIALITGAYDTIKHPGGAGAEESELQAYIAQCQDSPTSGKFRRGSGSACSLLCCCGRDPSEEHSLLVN
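TRPML1-DL cells, Tet-induced overnight (~16 h, 37 °C) at 1,500 cells/well, were loaded with Ca8 no-wash dye plus quencher for 45-90 min at room temperature. Compounds were pinned during FDSS kinetic reading; agonist 54-4 at EC80 (4 uM final) then added.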
TRPML1 ag = qHTS for Agonists of the Human Mucolipin Transient Receptor Potential 1 (TRPML1). Mucolipin-1 (Homo sapiens), Q9GZU1. TRPML1-expressing cells, Ca2+ dye fluorescence, FDSS; host cell line not named in the record; reference of the full effect not given here. activation, % (no concentration beside the values). 410,000 tested, 0.12% active. AID 624414, 2012; in the data active = activation above about 50%; inconclusive = about 30% to 50%; inactive = below about 30%; note: 0% is about no effect; the text of the record puts the active cut at 80%
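Calcium fluorescence on an FDSS kinetic reader gave the read-out. Tet-induced TRPML1-DL cells were plated overnight, dye-loaded (Ca8 with quencher, 45-90 min, room temperature, dark), then read 110 s after compound addition, and again 110 s after 4uM final 54-4 (EC80).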
The depositor's hits bear a star; ? = inconclusive; / = not tested or not shown; & = joins results of further samples; ! = repeats disagree; [ ] = dose if it differs, or a comment.

| SMILES | TRPML1 blocker | Menin MLL FP FL | ClpP mod | TRPML1 ag | gsp ag | gsp antag |
| --- | --- | --- | --- | --- | --- | --- |
| CCc1ccc(N(C2C=CS(=O)(=O)C2)S(=O)(=O)c2ccccc2)cc1 (stereo not drawn) | -8 | 5.4 | 0.3% | 1.7 | -8% | -13% |
| Cc1ccc(-c2ccc(C(=O)O)o2)cc1Cl | 15 | 0.0 | / | 0.5 | 16%[15.4 µM] | -14% |
| Cc1cc(CN2C(=O)c3ccccc3C2=O)cc(N2CCOCC2)c1 | -9 | 0.5 | 0.5% | 0.6 | 7% | 4% |
| c1cc2c3c(cccc3c1)NC(c1ccc3c(c1)OCO3)N2 | 25 | -0.7 | -13% | 3.4 | 7% | 0% |
| C[C@]12CC[C@@H]3c4ccc(O)cc4CC[C@H]3[C@@H]1CC[C@@H]2OC(=O)CCC1CCCC1 | 16 | / | 1.5% | -0.3 | / | 2% |
| CCCCn1c(=O)[nH]c(=O)c2c1nc(-c1ccc(OCCC)c(OCC)c1)n2CCOC | 22 | -3.3 | / | 2.3 | 4%[15.4 µM] | -7% |
| Cc1cccc(NC(=O)CCC(=O)N/N=C/c2cc([N+](=O)[O-])ccc2O)c1 | -1 | 3.5 | -8.5% | 3.1 | -11% | -4% |
| CCC1(c2ccc(F)cc2)NC(=O)N(CC(=O)N2CCc3ccccc32)C1=O (stereo not drawn) | -2 | / | 0.0% | 24 | -35%[inhibitor] | 5% |
| COc1cc(=O)oc(-c2ccccc2)c1C(C)=O | 50 | / | / | 0.5 | -25% | 2% |
| O=C(COC(=O)c1ccc(-c2ccc([N+](=O)[O-])cc2)o1)NC(=O)NC1CCCCC1 | 14 | 13 | 6.7% | -0.3 | 3% | -14% |
| CC(=O)Nc1cccc(NC(=O)CN2c3cccc4cccc(c34)S2(=O)=O)c1 | 23 | / | ? | 0.5 | -4% | -4% |
| CCOC(=O)c1cc(NC(=O)c2ccc(C)cc2)c(=O)oc1C(F)(F)F | 3 | -0.1 | 1.0% | 3.2 | ? | 4% |
| O=C(CCC1CCCC1)NCCCNC(=O)CCC1CCCC1 | 5 | 5.3 | 0.0% | 0.0 | -2% | -3% |
| COCCCNc1nc2c(c(=O)n(Cc3cccc(Br)c3)c(=O)n2C)n1C | 0 | -3.8 | / | 1.9 | -5% | 5% |
| Cn1c(/C=N/Nc2nc3ccccc3[nH]2)nc2ccccc21 | -1 | -0.3 | / | -0.2 | -22% | -9% |
| Cc1cc(OC(C)C(=O)NC2CC(C)(C)NC(C)(C)C2)c2c(C)c(C)c(=O)oc2c1 (stereo not drawn) | 13 | / | 3.7% | 0.3 | ? | / |
| CCCCN1CC[C@H]2C=CC[C@@H](C(=O)N3CCN(c4ccccc4)CC3)[C@H]2C1=O | 32 | / | 0.9%&0.9% | -0.2&-0.8 | 30% | 1% |
| Cn1c(=O)n(C)c2cc(N3CCCCC3)c(NC(=O)Nc3ccc(Br)cc3)cc21 | 21 | / | -22% | 0.8 | / | / |
| Cc1cc(C)cc(NC(=S)Nc2ccc3cn[nH]c3c2)c1 | 0 | 8.2 | -6.6% | -0.3 | 1% | 11% |
| CCCc1nnc(SCC(=O)Nc2cccc(Cl)c2Cl)o1 | -11 | 5.5 | / | 0.1 | -1%[15.4 µM] | 22% |
| Cc1ccc(NC(=O)c2cccs2)cc1NC(=O)c1ccco1 | 82 | -1.7 | -0.6% | -0.6 | -16% | -9% |
| Cc1ccc(-c2nc3ncccc3o2)cc1NC(=O)c1ccc([N+](=O)[O-])o1 | -21 | 1.9 | / | 0.1 | -7% | 10% |
| CCOc1ccc(N(CC(=O)NCCSc2ccccn2)S(C)(=O)=O)cc1 | -7 | 12 | 0.8% | -0.7 | -8% | 6% |
| FC(F)(F)c1ccccc1CN1CCCC(N2CCN(c3ccccc3)CC2)C1 (stereo not drawn) | -5 | -13 | 0.5% | -0.3 | 0% | 0% |
| COc1ccc(C)cc1NC(=O)CN1C(=O)CCc2cc(S(=O)(=O)N3CCOCC3)ccc21 | -9 | / | -1.0% | -1.2 | / | / |
| CC(C)(C)NS(=O)(=O)c1cc(C(=O)Nc2sccc2C#N)ccc1Cl | 7 | ? | -2.0% | 0.2 | 11% | -17% |
| COc1ccc(NC(=O)c2cccn2-c2nnc(N3CCCCC3)s2)cc1Cl | -17 | / | -25% | 0.5 | / | / |
| CCOC(=O)C1=NNC2(c3ccc(C)cc3)C(=O)N(c3ccccc3)C(=O)C12 (stereo not drawn) | 21 | 5.9 | / | 2.4 | 3%[15.4 µM] | -4% |
| CCc1nc(NCCN2CCOCC2)c(C#N)c2c1CCCC2 | 34 | 3.3 | -14% | 0.5 | -11% | 9% |
| COc1cccc(NC(=O)Cn2c(-c3nonc3N)nc3ccccc32)c1 | -9 | / | -1.8% | 3.5 | / | / |
| COC(=O)c1ccccc1S(=O)(=O)N1CCC(C(=O)OC(C)C(=O)NC(N)=O)CC1 (stereo not drawn) | 10 | 0.8 | -0.8% | 2.1 | 1% | -8% |
| Cc1cc(C)n2nc(SCC(=O)N3CCOCC3)nc2n1 | -11 | / | -7.3% | -0.4 | 13% | 11% |
| O=c1c(C=NCC2CCCO2)c(-c2ccccc2)[nH]n1-c1ccc([N+](=O)[O-])cc1 (stereo not drawn) | 12 | -1.6 | / | -0.5 | 4%[15.4 µM] | -11% |
| COc1ccc(NC(=O)C2OCCc3ccccc32)c(OC)c1 (stereo not drawn) | -4 | 3.6 | -1.4% | -0.4 | -43%[inhibitor] | 8% |
| COc1ccc(C2SCCN2S(=O)(=O)c2ccc(NC(C)=O)cc2)cc1 (stereo not drawn) | -6 | 1.6 | 1.1% | -0.6 | -9% | -9% |
| Cc1ccc(SCC(=O)Nc2nccs2)cc1 | -7 | -6.9 | -0.1% | 1.0 | 11%[15.4 µM] | 5% |
| CCc1ccc(-c2nc3ccc(Br)cc3c(C(=O)O)c2C)s1 | -2&6 | 0.1 | 25µM*! | 1.3&1.4 | ? | 5% |
| CC(C)CCC1CC(CSC(=N)N)OC1=O (stereo not drawn) | 6 | 3.8 | -1.3% | 1.8 | ? | 16% |
| CC(c1ccco1)N(C(=O)COc1ccc(Cl)cc1)c1ccccn1 (stereo not drawn) | -10 | 1.0 | -11% | 0.2 | 26% | -19% |
| CCOc1ccc(NC(=O)Nc2cc(-c3ccccc3)sc2C(=O)OC)cc1 | -8 | -1.4 | 20% | 0.9 | -56%[inhibitor] | ? |
| CCOc1ccc(Br)cc1CNCc1cccnc1 | 1 | -4.1 | -3.4% | -0.2 | -14% | -8% |
| Cc1ccc2c(c1C)NC(C(=O)O)C1CC=CC21 (stereo not drawn) | -2 | ? | -7.3% | 0.4 | -39%[inhibitor] | -13% |
| COc1ccc(C(C)=O)cc1CSc1nc2nc(C)cc(C)n2n1 | 6 | -0.4 | / | 0.8 | 6%[15.4 µM] | -8% |
| CCc1cc(C(=O)OCC(=O)NCCc2ccccc2)sc1C | -11 | / | -2.0% | -0.4 | ? | / |
| CCOC(=O)C1CCCN(C(=O)CC(c2ccccc2)c2ccccc2)C1 (stereo not drawn) | -4 | -0.4 | -1.8% | 1.7 | ? | -7% |
| COc1ccc(-c2nc(C#N)c(NCCCN3CCOCC3)o2)cc1 | -9 | 0.7 | 4.1% | -0.5 | -9% | 2% |
| O=C(NCc1ccco1)c1ccc(Cl)c(S(=O)(=O)N2CCCC2)c1 | 6 | / | -1.1% | -0.6 | -19% | -2% |
| CC(C)C(=O)N[C@@H]1c2ccccc2CC[C@@H]1O | -2 | / | -1.4% | 0.2 | / | 8% |
| CCOc1ccc(C(=O)Nc2cc(S(=O)(=O)Nc3ccccc3Cl)ccc2N2CCOCC2)cc1 | -15 | 3.1 | -13% | 0.3 | -28% | -16% |
| CCOc1cc(C(=S)N2CCCCC2)ccc1OCC(=O)NCc1ccccc1 | -1 | -5.6 | 0.0% | 0.1 | 27% | -7% |
| Cc1cc(/C=N/NC(=O)c2ccncc2)c(C)n1-c1ccccc1 | 11 | 3.9 | / | 0.2 | -6%[15.4 µM] | -5% |
| Cc1ccc(NC(=O)C2CCCN(S(=O)(=O)c3cccnc3)C2)c(C)c1 (stereo not drawn) | -14 | -0.8 | / | 0.0 | -4% | 4% |
| COc1ccccc1CNCC(=O)N1CC(=O)Nc2ccccc21 | 23 | -3.6 | -0.2% | -0.3 | -8% | 6% |
| CCN(C(=O)CSc1nnc(C)c(=O)[nH]1)c1cccc2ccccc12 | ? | / | 0.7% | 1.2 | -12% | -22% |
| C/C(=N/NC(=O)Cc1cccn1C)c1ccccc1 | 20 | 1.9 | -1.0% | 0.2 | -37%[inhibitor] | -7% |
| COc1ccc(S(=O)(=O)NCC(=O)NCCc2ccc(OC)c(OC)c2)cc1 | 38 | / | 1.3% | 0.8 | -75%[inhibitor] | 7% |
| CC(SC1=NCCS1)C(=O)Nc1nnc(-c2ccc(Br)cc2)s1 (stereo not drawn) | -4 | 3.1 | -8.6% | 0.4 | 0% | -19% |
| CC1CCc2nn(CC(=O)Nc3cccc(C(F)(F)F)c3)c(=O)cc2C1 (stereo not drawn) | -7 | / | 1.8% | -0.7 | / | / |
| COC(=O)c1ccccc1NC(=O)c1cc2nc(-c3ccc(OC)cc3)cc(C(F)(F)F)n2n1 | -7 | / | -11% | 1.7 | / | / |
| Cn1c(C(=O)N2CCN(C(=O)c3ccco3)CC2)cc2c(=O)n(C)c3ccccc3c21 | 4 | 2.1 | -8.0% | 0.7 | 6% | -10% |

Further structures
| SMILES | TRPML1 blocker | Menin MLL FP FL | ClpP mod | TRPML1 ag | gsp ag | gsp antag |
| --- | --- | --- | --- | --- | --- | --- |
| CC(=O)Nc1ccc(S(=O)(=O)N2CCC(NC(=O)c3ccccc3)CC2)cc1 | / | 3.4 | -0.6% | / | 8% | 7% |
| CN(C)c1nc(Cl)nc(N(C#N)CCOc2ccccc2)n1 | 44 | -1.7 | -2.9% | 3.0 | 10% | -8% |
| O=C(C1CCCC1)N1CCCC(Nc2ccccc2)C1 (stereo not drawn) | -29 | / | 0.7% | 1.0 | ? | -11% |
| CCCCN(C(=O)c1cccc(C)c1)c1c(N)n(CCC)c(=O)[nH]c1=O | -1 | 2.0 | / | 0.7 | 5% | 1% |
